High-throughput results from PubChem.
GLA inh pH 4.5: qHTS Assay for Inhibitors of Human alpha-Galactosidase at pH 4.5; Alpha-galactosidase A (Homo sapiens), P06280; purified enzyme, 4-MU-alpha-Gal fluorescence, pH 4.5; activity change, negative = inhibition, % at 105 µM; 230,000 tested, under 10 active; AID 1467, 2008; inconclusive = small, poorly fitted or top-dose-only inhibition, or a rising curve; inactive = flat fitted curve, though single readings scatter; no compound was filed as active;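 also: 0% = full activity with enzyme and -100% = basal without enzyme; dose as in the result columns while the protocol names 77 µM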
Target sequence (P06280 whole entry, looked up): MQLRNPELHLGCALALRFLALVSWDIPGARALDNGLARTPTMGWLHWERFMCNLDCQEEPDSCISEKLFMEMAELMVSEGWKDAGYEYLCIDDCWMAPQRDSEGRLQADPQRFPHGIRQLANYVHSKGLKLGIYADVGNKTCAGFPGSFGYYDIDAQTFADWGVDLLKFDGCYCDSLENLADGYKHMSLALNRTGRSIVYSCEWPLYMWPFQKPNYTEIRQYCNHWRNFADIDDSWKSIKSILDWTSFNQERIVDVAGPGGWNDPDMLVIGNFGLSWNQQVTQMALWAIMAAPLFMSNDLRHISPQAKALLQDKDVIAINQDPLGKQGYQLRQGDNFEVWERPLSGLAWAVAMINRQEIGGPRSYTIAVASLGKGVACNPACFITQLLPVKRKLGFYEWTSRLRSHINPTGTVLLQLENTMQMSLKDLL
Rango-impB inh: qHTS Assay for Inhibitors of Rango (Ran-regulated importin-beta cargo) - Importin beta complex formation; Importin subunit beta-1 (Homo sapiens), Q14974; Rango CFP/YFP FRET sensor + importin beta, 45 min; Potency, µM (highest dose often 92.2 µM), for the others: top-dose inhibition of complex formation; 0.031% of 340,000 active; AID 540263, 2011; active = rising FRET ratio curve, often small or poorly fitted; inconclusive = mostly compound fluorescence or quenching in the first reads; inactive = flat curves in all reads;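 also: potency is read from the fitted curve at half-maximal effect; 0% = DMSO wells and 100% = buffer wells lacking importin beta; nearly all actives have a fitted effect of over 15% in size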
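FRET biosensor (snurportin 1 IBB flanked by EYFP and cerulean), 50 nM, with compound 5 min, then 0.125 microM importin beta in PBS, 1 mM DTT, 0.02% Tween-20, 0.1% BSA. CFP/YFP ratio read after 45 min at room temperature; pre-read flags interference.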
miR-21 reporter: qHTS Assay for Modulators of miRNAs and/orActivators of miR-21. HeLa miR-21 FLuc reporter, luciferase, 48 h. Potency, µM (top dose mostly 38.3 µM), without a hit: at the top dose reporter change, positive = more light. 340,000 tested, under 10 active. AID 2288, 2010; active = well fitted rising curve with a large enough effect; inconclusive = small, poorly fitted or top-dose-only effect; inactive = no such curve, though single readings can be large or run the other way;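 also: % of control where 0% means no effect; miR-21 action dims this reporter so a rising signal means less miR-21 action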
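HeLa miR-21-FLuc reporter line, endogenous miR-21; 2000 cells/well in DMEM/10% FBS; compound titration up to ~40uM final, 48 h, 37 degree Celsius; luciferase detection reagent, 15 min lysis, CCD luminescence.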
Rango dissoc inh: qHTS Assay for Inhibitors of RanGTP induced Rango (Ran-regulated importin-beta cargo) - Importin beta complex dissociation | 0.071% of 340,000 active | Snurportin-1 (Homo sapiens) + GTP-binding nuclear protein Ran (Homo sapiens) + Importin … | Biochemical FRET Rango-importin beta, RanGTP-induced dissociation | Potency, µM (top dose mostly 46.1 µM), without a hit: top-dose activity change, negative = inhibition | AID 540253, 2011; active means falling FRET ratio curve, often poorly fitted, with flat reads before Ran was added; inconclusive means other falling curves, or compound fluorescence or quenching; inactive means flat or rising ratio curve;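 also: potency is read from the fitted curve at half-maximal effect; % of control where 0% means no effect; nearly all actives have a fitted effect of over 45% in size; -100% = wells without RanGTP and RCC1; the record marks most hits as doubtful in a second field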
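FRET read at 45 min, room temperature: inhibitors block the CFP/YFP signal rise when RanGTP (0.6 uM Ran, 2 mM GTP, 0.2 uM RCC1) frees Rango (0.1 uM) from importin beta (0.25 uM). Pre-read after 5 min compound exposure flags interference.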
* marks the source's active call; other numbers are inactive results; ? = inconclusive; · = not tested or not shown.

Screens in order: GLA inh pH 4.5	Rango-impB inh	miR-21 reporter	Rango dissoc inh
O=C(CSCC(=O)Nc1cccc([N+](=O)[O-])c1)Nc1ccccc1
  6	1.8%	-25%	?
COc1ccc(NC(=O)COC(=O)c2ccc3ccccc3n2)cc1OC
  ·	-4.9%	·	-22%
COCCN(C(=O)c1cc(Cl)ccn1)c1c(N)n(Cc2ccccc2)c(=O)[nH]c1=O
  ·	-1.1%	·	-1%
CC12CCC(=O)N1C(C(=O)OCC(=O)Nc1cccc(Br)c1)CS2 (centres undefined)
  -6	-0.8%	2%	3%
COc1ccc(NS(=O)(=O)c2cccc(C(=O)NNC(=O)CN3C(=O)NC(C)(C)C3=O)c2)cc1
  ·	3.7%	·	-1%
CCN(CC(=O)Nc1cc(Cl)ccc1C)C(=O)CN1C(=O)NC(CC)(c2ccccc2)C1=O (centres undefined)
  ·	-3.2%	·	-4%
CN(C)C(=O)NC1c2ccccc2-c2ccccc21
  ·	-1.4%	12%	-10%
CC(=O)/C(=N\Nc1ccc(C)cc1)Sc1nncn1C
  -2	?	0%	0%
Fc1ccc(Nc2nc(N3CCOCC3)nc(N3CCOCC3)n2)cc1
  ·	0.4%	-3%	2%
Cc1cnc(NC(=O)c2cccc(S(=O)(=O)N3CC(C)OC(C)C3)c2)s1 (centres undefined)
  -6	-1.0%	16%	38%
COC(=O)C1=C(C)NC(=O)/C1=C\N(C)C
  1	3.4%	4%	0%
Cc1ccc(CN(CC(=O)NCC2CCCO2)S(=O)(=O)c2ccc(C)cc2)cc1 (centres undefined)
  ·	-2.7%	2%	0%
COc1ccc(S(=O)(=O)NCc2cccnc2)cc1C(=O)N1CCCCC1
  ·	-1.8%	0%	0%
COC(=O)c1scc(C)c1NC(=O)CC1NCCNC1=O (centres undefined)
  0	-1.7%	-4%	38%
O=[N+]([O-])c1cc(N=Nc2ccc3ccccc3c2)ccc1O
  ·	-3.6%	-31%	3%
Cc1cc(=O)c2n(Cc3ccccc3Cl)nc[n+]2[nH]1
  5	?	-6%	-13%
Cc1cccc(NC(=O)c2ccc(COc3ccc4ccccc4c3)o2)n1
  2	-7.4%	-25%	2%
CC(=O)N1c2ccccc2C(C)CC12CCCCC2 (centres undefined)
  5	5.6%	-4%	-1%
Cc1ccc(C)c(OCC(=O)Nc2ccc(N3CCOCC3)cc2N2CCOCC2)c1
  ·	2.1%	·	2%
COc1ccc(C(=O)NC(=S)Nc2cc(C)ccn2)cc1[N+](=O)[O-]
  4	0.0%	-17%	-20%
Cc1ccc2c(c1)cc(CN(C(=O)N1CCOCC1)C1CCCC1)c1nnnn12
  4	-2.9%	2%	-7%
CN(CC(=O)Nc1ccccc1Cl)C(=O)COC(=O)c1cc(S(=O)(=O)N(C)C)ccc1N1CCCC1
  ·	-1.5%	·	2%
CCOC(=O)c1c(NC(=O)CSc2nc3ccccc3s2)sc(C(C)=O)c1C
  8	-3.6%	-1%	-9%
CCNC(=O)CON=C1c2ccccc2-c2ccccc21
  4	0.9%	-16%	-2%
COc1cc(OC)cc(C(=O)Nc2cccc3nc(C)ccc23)c1
  ·	0.2%	-3%	0%
CNC(=O)C(=O)NCCC1CCCCN1S(=O)(=O)c1cccs1 (centres undefined)
  ·	-0.2%	·	5%
COC(=O)c1sccc1NC(=O)CC1C(=O)NCCN1C(=O)c1ccc(N(C)C)cc1 (centres undefined)
  -14	3.2%	3%	-14%
Cc1ccc(C(=O)NNC(=O)c2ccoc2C)s1
  ·	-2.8%	·	1%
CN1CCN(CCCNC(=O)c2ccc(CSCc3cccc(Cl)c3)o2)CC1
  -7	0.2%	-8%	3%
Cc1cc(C(F)(F)F)n2ncc(C(=O)O)c2n1
  0	-3.9%	2%	-2%
Cc1ccc(Oc2ccc(OCC(=O)NC(C)C(=O)O)cc2)cc1 (centres undefined)
  1	-4.7%	1%	1%
CCOc1ccc(NC(=O)C2CCCN(C(=O)Nc3ccccc3)C2)cc1 (centres undefined)
  0	-0.8%	-5%	-12%
CC(C)n1c(Oc2ccc(F)cc2)nc2c1c(=O)n(C)c(=O)n2C
  6	0.8%	-5%	-8%
COc1ccc(C(C)(C)C)cc1NC(=O)CN1C(=O)C(=O)N(Cc2ccco2)C1=O
  ·	0.6%	·	2%
CCn1cc(S(=O)(=O)Nc2cc(C(=O)OC)ccc2C)cn1
  ·	-0.2%	14%	19%
CC(C)(c1cc(Cl)c(O)c(CN2CCOCC2)c1)c1cc(Cl)c(O)c(CN2CCOCC2)c1
  ·	0.1%	·	0%
Cc1ccc(-c2cn3cc(C)ccc3n2)cc1
  9	0.7%	?	-5%
COc1ccc(OC)c(CN(CCN2CCOCC2)C(=O)Nc2ccccc2)c1
  -28	5.7%	-21%	-15%
Cc1cc2c3c(c1)C(C)CC(C)(C)N3C(=O)C2=C(C#N)C#N (centres undefined)
  0	0.2%	-1%	-17%
Cn1c(/C=N/Nc2nc3ccccc3[nH]2)nc2ccccc21
  -2	-2.2%	11%	-7%
CCOc1ccc(N=C2C(=O)Nc3ccc(C)c(Br)c32)cc1
  ·	-2.4%	-13%	0%
COC(=O)c1ccc(C2c3c(oc4cc(C)c(C)cc4c3=O)C(=O)N2CCCN(C)C)cc1 (centres undefined)
  -3	·	-6%	·
CCN1/C(=C2/SC(=S)NC2=O)Sc2ccccc21
  -10	?	-4%	?
Cc1cc(NN)nc(Cc2ccccc2)n1
  ·	6.2%	-7%	3%
c1ccc(C2C/C(=N\N3CCOCC3)c3ccccc3O2)cc1 (centres undefined)
  3	3.9%	-1%	14%

A stretch of the results above:
Screens in order: GLA inh pH 4.5	Rango-impB inh	miR-21 reporter	Rango dissoc inh
Cc1cc(NN)nc(Cc2ccccc2)n1
  ·	6.2%	-7%	3%
c1ccc(C2C/C(=N\N3CCOCC3)c3ccccc3O2)cc1 (centres undefined)
  3	3.9%	-1%	14%

Other compounds.
Screens in order: GLA inh pH 4.5	Rango-impB inh	miR-21 reporter	Rango dissoc inh
CCn1c(SCC(=O)Nc2cc(C)on2)nnc1-c1ccc(S(=O)(=O)N2CCN(C)CC2)cc1
  12	-1.3%	3%	-14%
CCC(CN(C)C)Oc1cc(NCc2ccccc2)c2ncn(C(C)C)c2c1 (centres undefined)
  ·	?	·	?
COC(=O)c1cc(NC(=O)/C=C/c2ccccc2)ccc1O
  -1	·	-39%	·
O=c1ccc(-c2ccc([N+](=O)[O-])cc2)nn1-c1ccccc1
  2	-1.5%	1%	0%
CC1CC(=O)Nc2ccccc2N1C(=O)CSc1nnnn1C (centres undefined)
  ·	-0.1%	·	14%
COCCCn1c(=NC(=O)c2ccncc2)c(C#N)cc2c(=O)n3cccc(C)c3nc21
  ?	?	0%	?
CC(C)N1C(=O)S/C(=C\c2ccc(-c3ccc(Cl)c(C(=O)O)c3)o2)C1=O
  ·	?	-61%	?
CC(=O)c1cccc(NC2c3ccccc3C(=O)N2Cc2ccc3c(c2)OCO3)c1 (centres undefined)
  4	-2.0%	-11%	1%
CCc1onc(C)c1C(=O)O
  7	-2.3%	0%	1%
CN(C)c1ncc(/C=C2/C(=O)NC(=S)N(C3CCCCC3)C2=O)cn1
  9	·	-1%	·
Cc1cccc(C(=O)Nc2sc3c(c2C(=O)O)CCC3)c1
  -4	0.2%	24%	-5%
CCOP(=O)(c1ccc(N(C)C)cc1)C(O)c1cc(OC)c(OC)c(OC)c1 (centres undefined)
  5	1.1%	2%	-5%
O=C(CSc1n[nH]c(=O)n1-c1ccccc1)N1CCOCC1
  ·	1.4%	-1%	7%
CCOc1cccc(C(=O)Nc2cccc(-c3nc4ncccc4o3)c2C)c1
  -7	?	-1%	-6%
CC(C)OC(=O)Nc1ccc2c(c1)N(C(=O)CCN(C)C)c1ccccc1CC2
  ·	2.8%	-10%	2%
CC(C(=O)NC1=NCCS1)N1C(=O)C2CC=CCC2C1=O (centres undefined)
  0	-1.8%	1%	-2%
Cc1cc(-c2n[nH]c(=S)n2/N=C/c2cccs2)n[nH]1
  -3	-1.0%	-11%	?
Cc1nccn1CC(O)COc1ccccc1 (centres undefined)
  4	3.0%	2%	-5%
COc1cc2c(cc1OC)-c1nnc(C)n1C1(CCCC1)C2
  5	6.9%	-15%	2%
Cc1ccc(N(C)S(=O)(=O)c2cccc(C(=O)OCC(=O)c3c(N)n(C)c(=O)n(C)c3=O)c2)cc1
  ·	1.3%	·	0%
Cc1cnc(NCCc2ccccc2)s1
  ·	-0.8%	-2%	7%
COc1ccc(Cc2nc3ccc(C(=O)NC(C)c4cn(C)nc4C)cc3o2)cc1 (centres undefined)
  ·	-0.7%	8%	16%
O=C(N/N=C/c1ccc2c(c1)OCO2)c1ccc(COCC(F)(F)C(F)F)cc1
  ·	-0.1%	10%	-7%
Cc1cc(C)cc(NC(=O)COC(=O)CNC(=O)C2CCCCC2)c1
  ·	5.5%	·	15%
CC(=O)N1CCN(c2ccc(NCc3ccc(C(C)C)cc3)cc2)CC1
  8	-0.3%	11%	12%
O=C(CNC(=O)c1cccc(OC(F)F)c1)OCn1nnc2ccccc2c1=O
  5	-3.1%	-1%	0%
COc1ccc(OC)c(NC(=O)c2c(NC(=O)CCC(=O)O)sc3c2CCCCC3)c1
  ?	-4.2%	-20%	0%
COCCCNCC1C(Oc2ccc(Cl)cc2)C(=O)N1c1ccccc1C (centres undefined)
  0	-0.1%	-5%	-5%
Nc1ccc(S(=O)(=O)Nc2nccc(/C=C/c3ccc(Cl)cc3)n2)cc1
  ·	-0.7%	0%	-13%
COC(=O)C1CSC(c2ccc(Cl)cc2)N1C(=O)c1ccccc1 (centres undefined)
  3	9.3%	-17%	-1%
Cn1c(=O)c2c(nc(SCCCO)n2Cc2ccccc2Cl)n(C)c1=O
  -5	0.2%	-10%	22%
Cc1ccc(C)c(S(=O)(=O)N2CCN(C(=O)c3cncc(Br)c3)CC2)c1
  ·	-3.4%	0%	1%
CC(C)C[C@@]12C(=O)N(c3cccc(F)c3)C(=O)N1[C@H](c1ccc(Cl)cc1)[C@@H]1C(=O)N(C3CCCCC3)C(=O)[C@@H]12
  ·	2.3%	·	-7%
COc1cccc(NC(=O)CN2C(=O)NC(Cc3c[nH]c4ccccc34)C2=O)c1 (centres undefined)
  ·	1.1%	·	-2%
OC(CN1CCOCC1)CN1CCOCC1
  7	-0.8%	-7%	1%
CC(=O)c1cc2c(cc1NC(=O)C1CC1)OCO2
  -12	3.3%	-8%	-6%
CC1(C)Oc2ccc3ccc(=O)oc3c2-c2cnoc21
  7	-3.4%	-3%	?
O=C1NC(=O)C(c2ccc(Cl)cc2)N1 (centres undefined)
  ·	-3.0%	4%	-10%
CC(=O)NC(Cc1cc(C)ccc1C)C(=O)N1CCN(C(=O)c2ccc(Br)cc2)CC1 (centres undefined)
  0	0.4%	-2%	-4%
O=Cc1cc(N=Nc2ccc(S(=O)(=O)O)cc2)ccc1O
  ·	0.8%	·	1%
COc1ccccc1CNC(=O)c1cc(C)nn1-c1ccccc1
  11	2.2%	2%	2%

Some of the compounds tested; rates above refer to the full screens.
